Mtb MenB inh: M. tuberculosis MenB inhibitors, primary screen, biochemical, absorbance. 1,4-dihydroxy-2-naphthoyl-CoA synthase (Mycobacterium tuberculosis (strain ATCC 25618 / …. MenB enzyme assay, absorbance read-out; some hits fall short of the stated cut. inhibition, %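 (about 12 µg/mL by stock and volumes)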. 100,000 compounds, 0.43% hits. AID 540299, 2011;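 active = mean of two replicates above 30%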;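 note: 0% = no compound and 100% = wells with inactive enzyme; the first replicate is given; strong numbers were not always called active; inactives centre near -10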
Mtb MbtI inh: MbtI salicylate synthase inhibitors, primary screen, biochemical, fluorescence intensity. P9WFX0. purified MbtI enzyme, fluorescence intensity read-out. inhibition, %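 (about 17 µg/mL by stock and volumes)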. 100,000 compounds, 0.89% hits. AID 493033, 2011;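 active = above 50% in both replicates, above 80% if mildly self-fluorescent; inactive = the rest, strongly fluorescent compounds included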;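 note: 0% = mean of negative and 100% = mean of positive controls; one replicate is shown; some compounds called inactive have numbers as strong as hits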
Target sequence (P9WFX0 whole entry, looked up): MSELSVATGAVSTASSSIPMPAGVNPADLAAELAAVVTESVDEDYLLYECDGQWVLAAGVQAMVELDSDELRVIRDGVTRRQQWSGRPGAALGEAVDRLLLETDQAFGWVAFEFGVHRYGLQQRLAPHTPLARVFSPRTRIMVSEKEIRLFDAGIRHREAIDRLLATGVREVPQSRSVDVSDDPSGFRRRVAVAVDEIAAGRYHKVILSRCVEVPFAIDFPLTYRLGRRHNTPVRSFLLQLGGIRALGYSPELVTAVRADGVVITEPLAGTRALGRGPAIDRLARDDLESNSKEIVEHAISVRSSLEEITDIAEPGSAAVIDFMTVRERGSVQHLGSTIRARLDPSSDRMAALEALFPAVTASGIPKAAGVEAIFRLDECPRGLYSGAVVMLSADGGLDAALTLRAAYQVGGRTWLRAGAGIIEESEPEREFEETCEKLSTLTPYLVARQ
Polio RdRp inh: poliovirus RdRp elongation inhibitors, primary screen, biochemical, fluorescence polarization, total intensity; poliovirus polymerase elongation; active compounds read low; % elongation, % (compound at 16.7 µg/mL); 150,000 compounds, 0.66% hits; in the data active = % elongation below about 90%; note: some results filed as inactive read as strong as hits
Target sequence (P03300 1749-2209 limits assumed): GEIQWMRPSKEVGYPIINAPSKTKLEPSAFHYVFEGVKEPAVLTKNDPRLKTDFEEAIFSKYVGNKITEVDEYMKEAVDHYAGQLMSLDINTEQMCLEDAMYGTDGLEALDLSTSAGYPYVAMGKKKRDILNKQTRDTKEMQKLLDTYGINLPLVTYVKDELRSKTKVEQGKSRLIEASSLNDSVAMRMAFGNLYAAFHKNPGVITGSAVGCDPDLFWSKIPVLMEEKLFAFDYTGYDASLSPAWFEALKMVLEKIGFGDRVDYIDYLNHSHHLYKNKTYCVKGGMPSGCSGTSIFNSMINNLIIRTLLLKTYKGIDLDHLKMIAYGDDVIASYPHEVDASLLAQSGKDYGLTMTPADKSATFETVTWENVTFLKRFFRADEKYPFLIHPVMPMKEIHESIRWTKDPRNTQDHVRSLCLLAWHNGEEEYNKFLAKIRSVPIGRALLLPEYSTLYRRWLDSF
Polio RdRp inh intensity: further read-out of Polio RdRp inh, marked with its call; % elongation; measured here: total intensity read-out; formula for this scale not given here;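 total fluorescence in place of polarization; lower means less elongation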
Numbers without * were called inactive; i = inactive; nt = no result given. Compounds as they come; 1.7% or so of the library scored in one or more.

Key to letters – A = Mtb MenB inh; B = Mtb MbtI inh; C = Polio RdRp inh; D = Polio RdRp inh intensity
> O=C(Oc1ccc(-c2nnco2)cc1)C1CC(=O)N(c2ccc3c(c2)OCCO3)C1 (configuration not stated)
  A = 4 | B = -4 | C = 98 | D = 107

> O=C(O)CNC(=O)c1cc(=O)[nH]c(=O)[nH]1
  A = -26 | B = nt | C = 104 | D = 112

> CCN(CC)S(=O)(=O)c1ccc2nc(CSc3nnnn3-c3ccc(O)cc3)[nH]c2c1
  A = -21 | B = 0 | C = 101 | D = 103

> COc1ccc(NC(=O)CCn2c(=O)c3cccn3c3ccccc32)cc1
  A = 0 | B = 15 | C = 101 | D = 102

> COC(=O)c1cc2ccc3c(c2oc1=O)CN(Cc1ccco1)CO3
  A = -302 | B = 117 | C = 103 | D = 104

> Nc1nc(OCC(F)(F)F)cc(-c2ccccc2)n1
  A = 6 | B = nt | C = 100 | D = 101

> CC(C)CC(=O)Nc1cc2nn(-c3ccccc3)nc2cc1Cl
  A = -4 | B = -40 | C = 101 | D = 103

> Cc1ccc(S(=O)(=O)CCN2C=CC(C(F)(F)F)=NCC2)cc1
  A = 2 | B = -3 | C = 99 | D = 99

> Cc1ccc(S(=O)(=O)CCC#N)cc1
  A = nt | B = -8 | C = 100 | D = 100

> CN(C(=O)CSc1cccc[n+]1[O-])C1CCCCC1
  A = nt | B = 3 | C = 99 | D = 101

> Cc1cccn(Cc2c(Cl)cccc2Cl)c1=O
  A = -11 | B = 11 | C = 108 | D = 105

> Cc1ccc(NC(=O)CN2C(=O)/C(=C\c3ccccc3)SC2=S)cc1
  A = -25 | B = -1 | C = 101 | D = 98

> Cc1cccc(C(=O)NC2CCCCC2C)c1 (configuration not stated)
  A = -19 | B = -25 | C = 101 | D = 103

> CCC(=O)c1ccc(OC(=O)c2c(C)noc2C)cc1
  A = 3 | B = 3 | C = 101 | D = 103

> Cc1cnc(C(=O)Nc2cccc3ncccc23)cn1
  A = -50 | B = -2 | C = 104 | D = 104

> Cc1cc(Br)ccc1SCC(=O)OCC(=O)Nc1cc(F)ccc1F
  A = nt | B = -5 | C = 103 | D = 105

> CCOc1cccc(/C=N/NC(=O)c2cc(-c3cccn3C)n[nH]2)c1O
  A = -83 | B = -4 | C = 105 | D = 105

> CC(C)CN(CC(C)C)S(=O)(=O)N1CCC(C(=O)NCc2cccnc2)CC1
  A = -6 | B = -23 | C = 101 | D = 102

> O=C1c2ccccc2NC(c2ccc3c(c2)OCCO3)N1CCc1ccccc1 (configuration not stated)
  A = -3 | B = -98 | C = 102 | D = 108

> CCC(CC)=NNC(=O)c1cc(-c2ccccc2)n[nH]1
  A = -8 | B = -3 | C = 99 | D = 98

> O=S(=O)(Cc1nn[nH]n1)c1ccccc1
  A = -7 | B = -5 | C = 102 | D = 102

> O=C(COc1ccc2cc(Br)ccc2c1)NC(=O)NCc1ccco1
  A = -13 | B = 17 | C = 103 | D = 103

> Cc1ccccc1NC(=O)Nc1ccc(OCc2ccccc2)cc1
  A = 5 | B = nt | C = 101 | D = 107

> CC1CCCCC1NC(=O)c1cc2c(s1)CSC2 (configuration not stated)
  A = 0 | B = 75 | C = 96 | D = 98

> CCOP(=S)(OCC)C(Nc1ccccc1)c1ccccc1 (configuration not stated)
  A = 9 | B = 4 | C = 103 | D = 98

> Cc1cccc(Cc2c(C)c3c(C)[nH]nc3oc2=O)c1
  A = -6 | B = nt | C = 105 | D = 107

> CC1(C)Cc2c(C#N)c(NC3CCCCC3)nc(-c3ccco3)c2CO1
  A = 6 | B = -22 | C = 103 | D = 100

> CC(C)CCNC1=NCCCCC1
  A = 14 | B = -18 | C = 102 | D = 112

> C/C(=N\NC(=O)Cc1c(C)[nH]c(=O)[nH]c1=O)c1ccc(Br)cc1
  A = -20 | B = -9 | C = 104 | D = 102

> CN(C)c1ccc(/C=C2/C(=O)c3ccc(C(=O)O)cc3C2=O)cc1
  A = -21 | B = 7 | C = 133 | D = 161

> Cn1c(/N=C/c2c(O)ccc3ccccc23)nc2ccc(Br)cc21
  A = -104 | B = 28 | C = 70 | D = 169

> CC(C)(C)C(=O)/C=C(/N)c1ccncc1
  A = 8 | B = 21 | C = 99 | D = 102

> Cc1nc(C(F)(F)F)ccc1C(=O)Nc1ccccc1-c1ccccc1
  A = -13 | B = -16 | C = 106 | D = 107

> Cc1ccc(C2(C#N)C(=O)Nc3ccccc32)c(C)c1 (configuration not stated)
  A = nt | B = 2 | C = 101 | D = 97

> CCOc1ccc(C2CCCN2Cc2nc(N)nc(Nc3ccccc3)n2)cc1 (configuration not stated)
  A = -30 | B = -3 | C = 114 | D = 121

> CC(C)NC(=O)c1ccc2c(c1)nnn2C
  A = -14 | B = -4 | C = 100 | D = 103

> CCOC(=O)C1CCCN(C(=O)Nc2ccccc2)C1 (configuration not stated)
  A = -7 | B = -9 | C = 98 | D = 100

> CCOc1ccccc1NCC(=O)Nc1cc(C)ccc1Cl
  A = nt | B = -3 | C = 102 | D = 106

> COCCn1c(SC)nnc1-c1ccccc1
  A = 6 | B = 1 | C = 101 | D = 102

> Cc1ccc(-n2ncc3c(=O)[nH]c(SCc4ccccc4F)nc32)cc1C
  A = -4 | B = -10 | C = 103 | D = 102

> COC(=O)CSc1ccc2nnc(-c3cccnc3)n2n1
  A = -9 | B = 122 | C = 105 | D = 103

> CCSc1nnc2c(n1)OC(C(=O)c1ccccc1)Nc1ccccc1-2 (configuration not stated)
  A = -31 | B = nt | C = 102 | D = 100

> NC(=O)COC(=O)c1oc2ccccc2c1COc1ccccc1
  A = -14 | B = -17 | C = 103 | D = 107

> C/C(=N\OCc1ccc(C(=O)N2CCOCC2)o1)c1ccc(Cl)cc1Cl
  A = -2 | B = -6 | C = 102 | D = 104

> CCCC(=O)N1c2ccccc2C(N(C(C)=O)c2ccccc2)CC1C (configuration not stated)
  A = -8 | B = 0 | C = 100 | D = 101

> COc1cccc(CNC2=NCCC2)c1
  A = -8 | B = -5 | C = 103 | D = 108

> CNCC(=O)N(C)C
  A = -1 | B = 6 | C = 99 | D = 99

> CC(=O)Nc1ccc(C(=O)CSc2nc(C)cc(=O)[nH]2)cc1
  A = 4 | B = 7 | C = 101 | D = 99

> Cn1c(N)c(C(=O)Cn2nnc(-c3cccc(C(F)(F)F)c3)n2)c(=O)n(C)c1=O
  A = -27 | B = 2 | C = 101 | D = 103

> O=C(O)Cn1cc(CN2CCCC2)c2ccccc21
  A = -36 | B = 12 | C = 103 | D = 104

A different layout for 15 compounds above.
Molecule,Mtb MenB inh,Mtb MbtI inh,Polio RdRp inh,Polio RdRp inh intensity
Cc1cccc(Cc2c(C)c3c(C)[nH]nc3oc2=O)c1,-6,nt,105,107
CC1(C)Cc2c(C#N)c(NC3CCCCC3)nc(-c3ccco3)c2CO1,6,-22,103,100
CC(C)CCNC1=NCCCCC1,14,-18,102,112
C/C(=N\NC(=O)Cc1c(C)[nH]c(=O)[nH]c1=O)c1ccc(Br)cc1,-20,-9,104,102
CN(C)c1ccc(/C=C2/C(=O)c3ccc(C(=O)O)cc3C2=O)cc1,-21,7,133,161
Cn1c(/N=C/c2c(O)ccc3ccccc23)nc2ccc(Br)cc21,-104,28,70,169
CC(C)(C)C(=O)/C=C(/N)c1ccncc1,8,21,99,102
Cc1nc(C(F)(F)F)ccc1C(=O)Nc1ccccc1-c1ccccc1,-13,-16,106,107
Cc1ccc(C2(C#N)C(=O)Nc3ccccc32)c(C)c1 (configuration not stated),nt,2,101,97
CCOc1ccc(C2CCCN2Cc2nc(N)nc(Nc3ccccc3)n2)cc1 (configuration not stated),-30,-3,114,121
CC(C)NC(=O)c1ccc2c(c1)nnn2C,-14,-4,100,103
CCOC(=O)C1CCCN(C(=O)Nc2ccccc2)C1 (configuration not stated),-7,-9,98,100
CCOc1ccccc1NCC(=O)Nc1cc(C)ccc1Cl,nt,-3,102,106
COCCn1c(SC)nnc1-c1ccccc1,6,1,101,102
Cc1ccc(-n2ncc3c(=O)[nH]c(SCc4ccccc4F)nc32)cc1C,-4,-10,103,102

Further entries follow.
Values in the order: Mtb MenB inh | Mtb MbtI inh | Polio RdRp inh | Polio RdRp inh intensity
- O=C(CSc1nnc(-c2ccc(F)cc2)o1)C12CC3CC(CC(C3)C1)C2
  -7 | -7 | 102 | 104
- COc1ccc(NC(=S)N2CCCCC2)cc1
  -32 | -7 | nt | nt
- O=C(COc1ccc(F)cc1)N/N=C/c1ccc2c(c1)OCCO2
  -12 | 20 | 104 | 107
- CCc1nc2ccccc2c(C(=O)OCC(=O)c2ccc3c(c2)OCCO3)c1C
  -27 | -4 | 101 | 105
- CCCC1c2ccsc2CCN1C(=O)c1ccc(Cl)cc1 (configuration not stated)
  -7 | -4 | 105 | 109
- CC(=O)N1C(=O)/C(=C\C(=O)c2ccc(C)cc2)c2ccccc21
  nt | -8 | 102 | 105
- COc1ccc(-n2nc3ccc(NC(=O)CSc4ccc(Cl)cc4)cc3n2)cc1
  -27 | i | 102 | 103
- Cc1[nH]c2ccccc2c1CCNC(=O)c1cc2cc(Br)ccc2oc1=O
  -5 | nt | 101 | 103
- COc1ccc(C2(C#N)CCc3[nH]c4ccccc4c3C2)cc1OC (configuration not stated)
  1 | nt | 109 | 98
- COc1ccc(Br)c2c1-c1nc(/N=C/c3ccc(C)cc3)sc1C2
  -23 | 10 | 102 | 104
- COc1ccc(S(=O)(=O)c2cnc3cc(OC)c(OC)cc3c2N2CCC(C)CC2)cc1
  -28 | -5 | 104 | 97
- CC(C)n1c(N2CCN(Cc3ccc(Cl)cc3)CC2)nc2ccccc21
  -18 | -3 | 102 | 103
- CC(=O)Nc1ccc(OP2(=O)COc3ccccc3OC2)cc1
  2 | -8 | 98 | 102
- OCCCCC1OC2CCCCC2C2=CCCCC21 (configuration not stated)
  -57 | -4 | 102 | 102
- CCn1c(O)c(C=NC2CCCCCC2)c(=O)[nH]c1=S
  -18 | -19 | 100 | 103
- O=c1c2ccccc2c(/C=N/C2=NCCS2)c(O)n1-c1ccc(Cl)cn1
  -103 | -13 | 92 | 98
- CC(C)CCn1c(=O)c2ccccc2n2c(COC(=O)C3CC=CCC3)nnc12 (configuration not stated)
  -25 | 10 | 106 | 109
- Cc1nc(-c2cccs2)sc1C(=O)N1CCN(S(=O)(=O)c2ccccc2C(F)(F)F)CC1
  -24 | 75 | 102 | 106
- CC(=O)Nc1ccc(NC(=O)NC2(c3ccccc3)CC2)cc1
  8 | nt | 100 | 96
- Cc1cc(C(=O)CSCc2nnc3n(CCC(C)C)c(=O)c4ccccc4n23)c(C)n1C
  -11 | 38 | 104 | 105
- CCn1c(SCC(=O)NC2CCCC2)nnc1-c1ccccc1
  10 | -9 | 100 | 100
- Cc1cc2c(ccc3nonc32)nn1
  15 | 7 | 100 | 101
- CC(C)N1C(=O)CSC1c1cccs1 (configuration not stated)
  nt | -2 | 100 | 103
- CC12CC3CC(C)(C1)CC(C(=O)NCCCN1CCCC1=O)(C3)C2
  -28 | -11 | 100 | 102
- COc1ccc(CCNC(=O)c2cc3c(=O)[nH]c4ccc(C)cc4c3s2)c(OC)c1
  -9 | -6 | 104 | 108
- N#CC(c1ccccc1)c1ccccc1
  -18 | nt | 104 | 106
- CCOc1ccc(C(=O)Nc2ccc(-c3nnc4n3CCCCC4)cc2)cc1
  -19 | 5 | 104 | 107
- N/C(=N/O)c1cn(-c2ccccc2)nc1-c1ccccc1
  nt | -9 | 103 | 103
- COC(=O)c1ccc(CO/N=C/C(=O)Nc2cccc(C(F)(F)F)c2)o1
  -8 | 11 | 103 | 106
- O=C1c2ccccc2C(=O)N1CCN1CC2CC(C1)c1cccc(=O)n1C2 (configuration not stated)
  -6 | nt | 106 | 102
- FC(F)Oc1ccc(-c2csc(=Nc3cccnc3)n2C2CC2)cc1
  -18 | -1 | 105 | 109
- CC(=O)N1CCN(C(=O)CSc2nc(-c3ccc(F)cc3)cs2)CC1
  6 | 25 | 99 | 100
- N#Cc1ccccc1NC(=O)c1cc2c(s1)-c1ccccc1SC2
  -46 | 23 | 103 | 109
- Cn1cccc1C(=O)NN
  -10 | 0 | 103 | 102
- CC1(C)CC(=O)C(C(=N)Cc2ccccc2)=C(O)C1
  nt | -4 | 100 | 103
- CC1CCc2sc(C(=O)N/N=C/c3ccco3)cc2C1 (configuration not stated)
  -28 | 7 | 100 | 103
- Cn1c(=O)[nH]c(=O)c2c1nc(Br)n2CC(O)COc1ccc(Cl)cc1Cl (configuration not stated)
  -11 | nt | 103 | 109
- NC(=O)COc1cc2oc(=O)c3c(c2cc1Cl)CCCC3
  2 | -125 | 101 | 99
- O=C(CSc1nc(-c2ccccc2)cc(C(F)(F)F)n1)NCCN1CCOCC1
  2 | -25 | 100 | 101
- C(=C\C1Nc2ccccc2-c2nnc(SCc3ccccc3)nc2O1)/c1ccco1 (configuration not stated)
  -40 | 18 | 99 | 118
- S=c1[nH]c2ccccc2n1-c1ccccc1
  -30 | 92* | 78* | 79*
- N#CCC(=O)Nc1ccc(C(=O)NCc2ccccc2)cc1
  -3 | -7 | 104 | 105
- O=C(O)CC12CC3CC(CC(C3)C1(F)F)C2
  nt | 4 | 100 | 92
- COc1cc(C(=O)N(C)c2ccccc2)cc(OC)c1OC
  -15 | nt | 105 | 110
- CC(=O)Nc1ccc(S(=O)(=O)Nn2cnnc2)cc1
  -9 | -15 | 102 | 104
- COc1ccc(OCCSc2nc(C)cc(=O)[nH]2)cc1
  51* | 12 | 102 | 101
- CNC(=O)Nc1ccc(Oc2cncc(Cl)c2)nc1
  3 | 4 | 101 | 101

Compound activity as filed in PubChem.
